# Source: PubChem (National Center for Advancing Translational Sciences (NCATS))
# StopGo RLuc: lowers the Renilla signal of an FMDV 2A StopGo reporter; Potency, µM (series often up to 57.5 µM), inactives show top-dose signal change, negative = less light; hit rate 0.32% among 120,000; HEK cells with a luciferase reporter of 2A StopGo recoding; active means well fitted falling curve with a large enough effect; inconclusive means small, poorly fitted or top-dose-only effect; inactive means no such curve, though single readings can be large or run the other way; also: nearly all actives have a fitted effect of over 55% in size; overnight with compound
# StopGo FLuc: FMDV 2A StopGo reporter, firefly signal. HEK cells with a luciferase reporter of 2A StopGo recoding. Potency, µM (titrated, usually from 57.5 µM), inactives show at the highest dose signal change, negative = less light. hit rate 0.23% among 120,000. AID 1745856; active = well fitted falling curve with a large enough effect; inconclusive = small, poorly fitted or top-dose-only effect; inactive = no such curve, though single readings can be large or run the other way; also: nearly all actives have a fitted effect of over 60% in size; overnight with compound
# * hit, by the source's call; ? = inconclusive; [ ] = another dose, or the depositor's remark. % is scaled to controls: 0 for no effect and ±100 for the full control effect; potency is read from the fitted curve at half-maximal effect.
SMILES,StopGo RLuc,StopGo FLuc
COc1ccc(C(=O)Nc2ccc3c(c2)CCCN3S(=O)(=O)c2ccc(C)cc2)cc1,31%[activator],-15%
CCC(=O)N1CC(=O)Nc2ccc(C)cc2C1c1ccc(F)cc1 (centres undefined),-10%,-11%
COc1ccc(OC)c(CNC(=O)CCC(=O)N2Cc3ccccc3Oc3ncccc32)c1,-7%,-9%
CC(=O)c1c(C)[nH]c(C(=O)C(C)Oc2ccc(Cl)cc2Br)c1C (centres undefined),-7%[1.06 µM],?
O=C(c1ccc(Cl)cc1)N1CCN(CCc2ccncc2)CC1,-16%,-18%
CCCC(=O)Nc1oc2c(C)cccc2c(=O)c1-c1cc(OC)c(OC)c(OC)c1,-9%,0%
COc1ccc(C)cc1NC(=O)Cn1cc(S(=O)(=O)Cc2ccccc2Cl)c2ccccc21,45%[activator],9%
COC[C@@H](NC(C)=O)C(=O)NCc1ccccc1,-4%,-13%[11.5 µM]
COc1ccc(-c2nc(SCC(=O)Nc3cccc(C(C)=O)c3)n[nH]2)cc1,-23%,35%[activator]
CN(C)CCNc1oc(-c2ccc(S(=O)(=O)N3CCCC3)cc2)nc1C#N,55%[activator],-8%
O=C(Cn1cnc2sc3c(c2c1=O)CCCC3)NCCC(=O)N1CCC2(CC1)OCCO2,-6%,15%
COC(=O)NNC(=S)Nc1cccc(C)c1,1%,-13%
Cc1ccc(Nc2nc(C(=O)OCC(=O)c3ccc(C)cc3)cs2)cc1,0%,122%[activator]
Cc1ccccc1Cn1cnc(NS(=O)(=O)c2c(C)n[nH]c2C)n1,-5%,4%
CC(=O)c1ccc(OCc2ccc(Cl)cc2Cl)cc1,8%,46%[activator]
Cc1ccc(C)c(/C=C/c2cc(C(=O)O)c3ccccc3n2)c1,16%,24%
O=C1CC(=O)Nc2cc(S(=O)(=O)Nc3ccc(F)cc3Cl)ccc2N1,2%,-5%
CCOc1ccccc1NC(=O)C(C)Sc1cc(-c2ccccc2)nc(C)n1 (centres undefined),-7%,-11%
CN(C)c1ccc(C(=O)NNC(=O)c2ccccc2F)cc1,18%,2%
CCOc1cc(C(=O)Nc2ccc(-c3nc4cc(C)ccc4o3)cc2)cc(OCC)c1OCC,-5%,67%[activator]
Cc1ccc(SCc2cc(=O)[nH]c(Nc3nc(C)c4ccc(C)cc4n3)n2)cc1,-1%,6%
CSc1ccccc1NC(=O)c1ccsc1,2%,23%
Cc1ccc(C)c(NCc2nnc(-c3ccc(Br)cc3)o2)c1,31%,91%[activator]
Cc1cc(C(F)(F)F)c(C#N)c(SCC#N)n1,5%,0%
Cc1cccn2c(=O)c(/C=C(\C#N)c3nc4ccccc4s3)c(Oc3ccc(F)cc3)nc12,2%,-4%
COc1ccc(CC(=O)NCc2nc3cccnc3n2Cc2ccccc2)cc1,4%,-5%
O=C(Nc1ccc(S(=O)(=O)Nc2ncccn2)cc1)c1cccc(Cl)c1,-2%,-6%
CCc1cccc(N2C(=O)CS(=O)(=O)C23C(=O)N(Cc2ccc(F)cc2)c2ccc(C)cc23)c1 (centres undefined),0%,-26%
CS(=O)(=O)N(Cc1ccccc1)c1ccc(C(=O)Nc2cccc(Cl)c2)cc1,40%[activator],-19%
COc1ccc(C(=O)Nc2ccc3oc(-c4ccncc4)nc3c2)c(OC)c1,16%,26%
Cc1ccc(NC(=O)CSc2nc3ccc(NC(=O)c4cccs4)cc3s2)c(C)c1,52%[activator],11%
Cc1ccccc1C(=O)Oc1ccc(OCc2ccccc2)cc1,5%,20%
COc1ccccc1CN(Cc1ccco1)c1cnc(S(C)(=O)=O)nc1C(=O)Nc1ccccc1Cl,11%,-6%
CN(C(=O)CSc1cn(CC(=O)N2CCCC2)c2ccccc12)c1ccccc1,-7%,3%
O=C(Cn1ncc2c(=O)oc3ccccc3c21)NCc1ccc(Cl)cc1,-12%,-10%
CC(C)OC(=O)c1c(NC(=O)C2c3ccccc3Oc3ccccc32)sc2c1CCCC2,-9%,-8%

# 3 consecutive records from above, quoted:
SMILES,StopGo RLuc,StopGo FLuc
CN(C(=O)CSc1cn(CC(=O)N2CCCC2)c2ccccc12)c1ccccc1,-7%,3%
O=C(Cn1ncc2c(=O)oc3ccccc3c21)NCc1ccc(Cl)cc1,-12%,-10%
CC(C)OC(=O)c1c(NC(=O)C2c3ccccc3Oc3ccccc32)sc2c1CCCC2,-9%,-8%

# Looked up by structure from the entries so far (six):
SMILES,StopGo RLuc,StopGo FLuc
CN(C(=O)CSc1cn(CC(=O)N2CCCC2)c2ccccc12)c1ccccc1,-7%,3%
O=C(Nc1ccc(S(=O)(=O)Nc2ncccn2)cc1)c1cccc(Cl)c1,-2%,-6%
COc1ccccc1CN(Cc1ccco1)c1cnc(S(C)(=O)=O)nc1C(=O)Nc1ccccc1Cl,11%,-6%
COc1ccc(C(=O)Nc2ccc3oc(-c4ccncc4)nc3c2)c(OC)c1,16%,26%
Cc1ccccc1C(=O)Oc1ccc(OCc2ccccc2)cc1,5%,20%
O=C(Cn1ncc2c(=O)oc3ccccc3c21)NCc1ccc(Cl)cc1,-12%,-10%

# (listing goes on)
SMILES,StopGo RLuc,StopGo FLuc
CC1(C)CC(NC(=S)Nc2cc(F)cc(F)c2)CC(C)(C)N1,4%,2%
CC(C)C(=O)/C(C#N)=C\c1cc2ccccc2nc1N1CCOCC1,8%,6%
CCOc1ccc2nc(SCc3nc(-c4ccc(Cl)cc4)no3)[nH]c2c1,?,?
Cc1cccc(C(=O)OCc2cc(=O)n3c(C)csc3n2)c1,-16%,-4%
O=C1CCCC2=C1C(c1ccc(OCc3ccccc3)cc1)c1c([nH]n(-c3ccccc3)c1=O)N2 (centres undefined),154%[activator],9%
CCOc1cc(Br)c(C2C(C#N)=C(N)Oc3c2ccc2ccccc32)cc1OC (centres undefined),0%,-7%
CCOC(=O)c1sc(NC(=O)C2CC(=O)N(c3ccc4c(c3)OCCO4)C2)nc1C (centres undefined),-6%,-2%
O=C(NC(c1ccccc1)c1ccccc1)c1cc(=O)c2ccccc2o1,1%,-12%
COCCn1cnc2c1c(=O)n(CC(=O)OCc1cccc(F)c1)c(=O)n2Cc1ccccc1,-11%,-10%
O=C(Cc1cccs1)NC(C(=O)Nc1ccc2c(c1)OCO2)c1ccccc1 (centres undefined),128%[activator],6%
CC(C)(C)c1ccc(C(=O)NCC(c2ccc(Cl)cc2)N2CCOCC2)cc1 (centres undefined),-9%,-9%
COc1ccc(CCNc2ncnc3c2cnn3-c2ccc(C)c(Cl)c2)cc1,4%,49%[activator]
CCCCN(CC(N)=O)CC(=O)NC(N)=O,10%,1%
COc1ccc(Br)cc1CNC(=O)c1cnc2sc(N3CCCCCC3)nn2c1=O,-8%,-9%
Cc1ccc(NC(=O)NCC(O)c2ccc(F)c(F)c2)cc1C (centres undefined),1%,69%[activator]
COc1cccc(-n2c(SCC(=O)Nc3cccc(C)c3)nc3c([nH]c4ccccc43)c2=O)c1,-27%,?
Cc1ccc2c(C(=O)O)cc(-c3ccccc3)nc2c1C,27%,0%
COc1ccc(-n2c(SCC(=O)Nc3ccc4c(c3)OCO4)nc3c([nH]c4ccccc43)c2=O)cc1,-8%,3%
O=C(/C(=C/c1cccs1)c1nc2ccccc2o1)c1ccccc1,20%,83%[activator]
CCOC(=O)C1CCN(C(=O)COc2cc(O)c3c(=O)cc(-c4ccccc4)oc3c2)CC1,10%,17%
COC(=O)CCSc1nnc(-c2nn(Cc3ccccc3)c(=O)c3ccccc23)o1,4%,7%
CC(Cc1cccs1)N(Cc1ccccc1)C(=O)c1cccc(S(=O)(=O)N2CCOCC2)c1 (centres undefined),36%[activator],-8%
Cc1oc(-c2ccccc2)nc1C(=O)NCC(C)N1CCOCC1 (centres undefined),-6%,-8%
CC(C)CNC(=O)NC(=O)COC(=O)c1cc(F)cc(F)c1,1%,19%

# 2 of the compounds above, with two lines to a compound.
# Second line of a record – StopGo RLuc, StopGo FLuc
COc1ccc(Br)cc1CNC(=O)c1cnc2sc(N3CCCCCC3)nn2c1=O
    -8%, -9%
Cc1oc(-c2ccccc2)nc1C(=O)NCC(C)N1CCOCC1 (centres undefined)
    -6%, -8%

# Next part
SMILES,StopGo RLuc,StopGo FLuc
Cc1ccc(CC(=O)c2ccccc2)cc1C,5%,39%[activator]
Cc1ccc(NCc2cc3ccc(C)cc3[nH]c2=O)c(C)c1,60%[activator],72%[activator]
COCCCC/C(=N\OCCN)c1ccc(C(F)(F)F)cc1,10%,2%
Cc1ccc(-c2onc(C)c2C)cc1S(=O)(=O)NC1CCCCC1,-39%,?
Cc1cc2c(cc1NC(=O)c1ccccc1Cl)n(C)c(=O)c(=O)n2C,-7%,-13%
Cc1ccccc1C(=O)NCC(c1cccnc1)N1CCc2ccccc21 (centres undefined),3%,-12%
CC(C)Cc1ccc(C(C)NC(=O)C(Cc2ccccc2)NC(=O)c2ccccc2)cc1 (centres undefined),77%[activator],-7%
NC(=O)C(Sc1ccc2c(c1)OCCCO2)c1ccccc1 (centres undefined),19%,0%
CCNc1c(NC(=O)NCC(C)C)c(=O)oc2ccccc12,-11%,1%
CCc1ccc(NC(=O)Cn2c(=O)n(-c3cc(OC)c(OC)c(OC)c3)c(=O)c3ccccc32)cc1,6%,-2%
O=C(Cn1nc(C(=O)O)c2ccccc2c1=O)Nc1ccc(Cl)cc1,-4%,5%
CSc1ccc(CNC(=O)c2ccccc2NC(=O)c2nsc3ccccc23)cc1,-9%,16%

# Next part, overlapping the part above by six compounds.
SMILES,StopGo RLuc,StopGo FLuc
CC(C)Cc1ccc(C(C)NC(=O)C(Cc2ccccc2)NC(=O)c2ccccc2)cc1 (centres undefined),77%[activator],-7%
NC(=O)C(Sc1ccc2c(c1)OCCCO2)c1ccccc1 (centres undefined),19%,0%
CCNc1c(NC(=O)NCC(C)C)c(=O)oc2ccccc12,-11%,1%
CCc1ccc(NC(=O)Cn2c(=O)n(-c3cc(OC)c(OC)c(OC)c3)c(=O)c3ccccc32)cc1,6%,-2%
O=C(Cn1nc(C(=O)O)c2ccccc2c1=O)Nc1ccc(Cl)cc1,-4%,5%
CSc1ccc(CNC(=O)c2ccccc2NC(=O)c2nsc3ccccc23)cc1,-9%,16%
COc1ccc(CCNC(=O)CN(c2ccc(F)c(Cl)c2)S(C)(=O)=O)cc1OC,-2%,7%
CC(=O)Nc1ccc(I)c(C)n1,6%,0%
Cc1cc(C)c(NC(=O)CCS(=O)(=O)c2cc3c(cc2Cl)NC(=O)CO3)c(C)c1,-4%,-7%
Cc1ccc(NC(=O)C(C#N)=C2CCCCCC2)c(C)c1,32%,71%[activator]
O=[N+]([O-])c1ccc(N2CCN(S(=O)(=O)c3ccc4ccccc4c3)CC2)c2ncccc12,4%,2%
CCCCN(CC)Cc1ccc(CNS(=O)(=O)c2cc3c(cc2Cl)NC(=O)CO3)o1,-6%,9%
O=C(c1n[nH]c(=O)c2ccccc12)N1CCN(CC(F)(F)F)CC1,17%,38%[activator]
COc1ccc(Cc2nc3ccccc3[nH]c2=O)cc1,83%[activator],-8%
CC(=O)c1ccc(-c2ccc(C=O)o2)cc1,-14%,-11%
Nc1nc(Nc2ccc(F)cc2)sc1C(=O)c1ccc(Cl)cc1,3%,43%[activator]
N#Cc1cccc(NC(=O)Cn2c(=O)c3c(ncn3C3CCCC3)n(Cc3ccccc3)c2=O)c1,-2%,-16%
CCNc1cccc(C)c1C,1%,-2%
Cc1ccc(CN2CCC(CNC(=O)c3cc4ccc5cccnc5c4[nH]3)CC2)cc1,4%,26%
C=CCN1C(=O)S/C(=C/c2cn(CC(=O)O)c3ccccc23)C1=O,11%,0%
Cc1cccc(C)c1NC(=O)CN1CCN(C(=O)CN(C)Cc2cnn(-c3ccccc3)c2)CC1,-21%,-17%
O=C(COC(=O)c1cc2c(s1)CCC2)NC(=O)NC1CCCC1,11%,19%
O=c1oc2ccc(Cl)cc2cc1-c1cn2ccccc2n1,4%,0%
Cc1cc(OCC(=O)Nc2ccc(C(=O)OC(C)C)cc2)ccc1Cl,-4%,1%
Cc1ccc(NS(=O)(=O)c2ccc3c(c2)CCCN3C(=O)C2CCC2)c(C)c1,50%[activator],?
COc1ccc(OC)c(NC(=O)CSc2nccn2-c2cc(C)cc(C)c2)c1,-16%,?
Cc1ccc2c(=O)c(C(=O)c3ccc(F)cc3)cn(CC(=O)NC3CCCCC3)c2n1,-5%,-8%
COc1ccc(C2CC(=O)Nc3c2c(C)nn3-c2ccc(Cl)nn2)cc1O (centres undefined),20%,18%
O=C1CC(c2ccc(F)cc2)Cc2nc3nc(C(F)(F)F)nn3cc21 (centres undefined),?,-3%
COc1cccc(-c2ccc3c(N)c(C(=O)Nc4ccc(Cl)cc4F)sc3n2)c1,-12%,0%
N#Cc1cccc(NC(=O)C2CCN(c3cnccn3)CC2)c1,-15%,-12%
CCOc1ccc(/C=C(/C#N)C(=O)c2ccccc2)cc1OC,-3%,6%
CC1=C(C(=O)OC2CCCC2)C(c2ccccc2C(F)(F)F)CC(=O)N1 (centres undefined),17%,2%
CC(C)CCN1CCN(C(=O)CCCc2ccccc2)CC1,7%,129%[activator]
CNCCCNC(=O)C(=O)Nc1cccc2[nH]ccc12,10%,30%[activator]
c1ccc2nc(SCc3ccc4c(c3)OCCO4)ccc2c1,16%,220%[activator]
Cc1cc(C)cc(NC(=O)Cn2c(=O)n(Cc3ccc4c(c3)OCO4)c(=O)c3oc4ccccc4c32)c1,-6%,0%
Cc1cc2oc(=O)cc(CN(C)CC(=O)N(C)C)c2cc1C,-5%,7%
CC1CCc2nc3ccccc3c(C(=O)OCC3CCCO3)c2C1 (centres undefined),-5%,-14%
CC1CN(C(=O)CCc2ncc(-c3ccc(F)cc3)o2)CCO1 (centres undefined),-9%,23%
CCn1c(=N)c(C(=O)NCC2CCCO2)cc2c(=O)n3cc(C)ccc3nc21 (centres undefined),-2%,-6%

# An excerpt, so the mix of outcomes need not match the whole.
